BJeLR lethal: BJeLR cell viability loss | BJeLR (HRASV12) viability, CellTiter-Glo ATP luminescence, 48 h; reference of the scale not given here | inhibition, % (test concentration not listed) | hit rate 0.17% among 300,000;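 active = replicate mean above 50%; inconclusive = above 50% but judged a plate artefact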;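 note: 50 nL library stock added to about 25 µL; numbers are from one replicate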
PrP 5UTR inh: suppresses PrP 5' UTR mRNA reporter expression | cell-based PrP 5' UTR mRNA reporter, plate reader | inhibition, % (no concentration beside the values) | hit rate 0.35% among 340,000 | AID 488862;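 active = every replicate at 50% or more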;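 note: 0 = median of the neutral control wells; tested in H4 reporter cells; numbers are from one replicate; inactives centre near -14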
RN4220 kill: S. aureus RN4220 growth inhibition; OD600, 16 h; inhibition, % (no concentration beside the values); hit rate 0.33% among 330,000; AID 1259311;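 active = z-score of -3 or lower and OD600 up to 0.18 on both plates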;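 note: plate controls were untreated cells for no effect and reference antibiotic for full effect; stock transfer was 100 nL into about 80 µL; one replicate is shown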
Autofluor counter: compound fluorescence in toxin protease inhibitor counterscreen; compound autofluorescence counterscreen, microsphere flow cytometry; active compounds read high; fluorescence intensity (no concentration beside the values); hit rate 3.1% among 360,000; AID 624483;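 active = at least 3 SD above the mean of all compounds, about 16000 in these data; inconclusive = too few beads counted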;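 note: 100 nL of 1 mM stock went into each well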
Sa ugtP lethal: compounds lethal to S. aureus RN4220 ugtP deletion mutant. OD600 growth, 16 h; some inactives read as strong as hits. hit rate 0.54% among 330,000. growth inhibition, % (test concentration not listed);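 active = z-score under -3 and OD600 up to 0.15 on both plates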;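 note: plate controls were untreated wells for no effect and antibiotic for full effect; wells of about 80 µL received 100 nL stock; the first replicate is given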
Mtb hypoxia inh: reduces hypoxia-regulated biosensor signal in M. tuberculosis | hit rate 0.1% among 300,000 | fluorescence inhibition, % (no concentration beside the values) | AID 1159583 | M. tuberculosis hypoxia-regulated fluorescent reporter, fluorescence;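 active = 35 to 45% if threefold the growth effect, above 45% if 1.5-fold the growth effect; inactive = the rest, general growth blockers included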;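 note: wells of about 50 µL received 100 nL stock; 0% = vehicle wells and 100% = reference inhibitor wells; whole bacteria with a GFP reporter of the hypoxia response; strong numbers were not always called active; many hits fall short of the cut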
Mtb hypoxia inh growth: recorded beside Mtb hypoxia inh, whose call it bears; growth inhibition, %; measured here: M. tuberculosis growth (absorbance);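 0% = vehicle and 100% = reference antibiotic; read after six days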
An asterisk follows results filed as active; ? = inconclusive; nt = not tested or not shown; & = joins results of further samples.

SMILES	BJeLR lethal	PrP 5UTR inh	RN4220 kill	Autofluor counter	Sa ugtP lethal	Mtb hypoxia inh	Mtb hypoxia inh growth
Fc1cccc(CNCC2CCCO2)c1 (configuration not stated)	2	-14	4.9	3760	14	4	12
CC(CCc1ccccc1)=NNC(=O)C1C2CCCCC21 (configuration not stated)	nt	nt	1.8	nt	-2	12	2
O=C(CSc1nnc(-c2ccc(F)cc2)o1)NC1CCCC1	-6	-25	5.8	5197	8	8	-1
COc1cccc(OC)c1C(=O)Nc1ccc(C)cc1C(=O)c1ccccc1	-11	1	1.3	2475	40	3	11
COc1ccc(CCC(=O)Nc2ccc3c(c2)OCO3)cc1OC	-1	-26	1.4	3769	4	15	8
CC(CNS(=O)(=O)c1ccc(Br)cc1)CN(C)C (configuration not stated)	0	-13	5.4	nt	18	6	11
CCc1noc(C)c1C(=O)NNC(=O)c1ccc(F)cc1	-6	-19	5.1	5615	4	8	0
O=C(NCCN1CCCCC1)Nc1ccc(Cl)cc1	7	-5	4.4	?	12	14	6
COc1cccc(NC(=O)c2ccccc2Br)c1	-2	-58	2.9	3834	2	9	3
O=C(CSCc1ccc(Br)cc1)NCCc1ccccc1	2	-55	4.5	3290	6	19	10
O=C(NC1CCN(Cc2ccccc2)CC1)c1ccccc1OCc1ccccc1Cl	5	-26	-0.8	5749	0	10	3
CCc1ccc(N(CC(=O)NC(C)C)C(=O)CCC(=O)Nc2ccccn2)cc1	0	-11	1.0	nt	0	4	-5
COc1ccc(N2CCN(C(=O)CN3C(=O)c4ccccc4S3(=O)=O)CC2)cc1	-12	0	-0.1	4680	4	nt	nt
COc1cccc(-n2cc(C(=O)NCCCOC(C)C)c3ccccc3c2=O)c1	-6	-15	-4.2	3234	1	-6	-5
COc1cccc(-c2nc(=S)c3c(n2CCCO)CCCC3)c1	-15	5	5.1	9259	8	10	5
Cc1onc(-c2ccccc2Cl)c1C(=O)N(Cc1nc(-c2ccccc2)no1)C1CCCCC1	-2	-24	9.7	11178	-16	7	8
CC(=NNC(=O)c1ccco1)c1cccc2ccccc12	nt	nt	5.1	nt	4	nt	nt
CCOC(=O)c1c(CSc2ccccc2)oc2cc(Br)c(O)c(CN(C)C)c12	-11	-23	7.9	4431	-2	17	7
O=C(COC(=O)c1cnccn1)Nc1cccc2ccccc12	-1	-14	4.3	4599	4	10	-3
CC(C)CN(C=Nc1sc2c(c1C#N)CCCCC2)CC(C)C	nt	nt	-2.0	nt	72	3	6
Cc1ccc(NC(=O)c2cc([N+](=O)[O-])ccc2NCc2cccnc2)cc1	-9	-12	4.5	9827	1	5	1
CCCc1nnc(NC(=O)CCC(=O)N2CCN(Cc3ccc(OC)c(F)c3)CC2)s1	47	-8	3.3	5532	1	6	-4
COc1cc(OC)c(OC)cc1CN1CCSCC1	7	-35	2.5	3102	9	8	9
O=C1NCCCC1C(=O)N/N=C/c1cccc([N+](=O)[O-])c1 (configuration not stated)	6	-25	nt	4114	nt	nt	nt
O=C(CCn1c(=S)oc2ccccc21)Nc1cccc(O)c1	6	-38	4.6	4075	10	7	6
Cc1ccc(C(=O)NCC(=O)NNC(=O)CN(C)S(=O)(=O)c2ccc(Cl)cc2)s1	-2	-14	3.7	5419	8	7	17
CCN(CC(=O)Nc1c(F)cccc1F)C(=O)COc1cccc2c1OC(C)(C)C2	9	-10	2.7	?	4	1	4
CC(C)(CNC(=O)CNC(=O)c1ccc(Cl)cc1Cl)N1CCOCC1	nt	1	2.0	?	1	0	0
COC(=O)c1sccc1NC(=S)N1CCN(c2ccc(F)cc2)CC1	12	-3	2.5	8791	9	2	10
CCc1ccc(NC(=O)c2noc(C(C)C)c2[N+](=O)[O-])cc1	-13	-11	29	2441	34	9	-2
O=[N+]([O-])c1cccc(C(O)C23CN4CN(CN(C4)C2)C3)c1 (configuration not stated)	-1	5	2.8	3388	3	6	-8
COc1cc(/C=N/N=C2/NC(=O)C(c3ccccc3)S2)ccc1O (configuration not stated)	-1	-19	nt	10188	nt	nt	nt
Cc1ccc(NC(=O)CCc2nnc3ccc(N4CCC5(CC4)OCCO5)nn23)cc1F	-2	-90	1.6	2572	3	10	-2
Oc1oc(-c2ccc(Br)cc2)nc1/C=N/c1ccccn1	-2	-42	nt	2249	nt	nt	nt
CN(CC(=O)Nc1cccc(F)c1)C(=O)c1ccc(NC2CC2)c([N+](=O)[O-])c1	7	2	-0.2	5895	1	15	2
CC(=O)Nc1ccc(S(=O)(=O)NCCC(=O)NCc2ccncc2)cc1	2	-13	0.6	?	3	-8	4

Ordered by formula weight (largest number first): part of the list above.
SMILES	BJeLR lethal	PrP 5UTR inh	RN4220 kill	Autofluor counter	Sa ugtP lethal	Mtb hypoxia inh	Mtb hypoxia inh growth
Cc1ccc(C(=O)NCC(=O)NNC(=O)CN(C)S(=O)(=O)c2ccc(Cl)cc2)s1	-2	-14	3.7	5419	8	7	17
Cc1ccc(NC(=O)CCc2nnc3ccc(N4CCC5(CC4)OCCO5)nn23)cc1F	-2	-90	1.6	2572	3	10	-2
CCN(CC(=O)Nc1c(F)cccc1F)C(=O)COc1cccc2c1OC(C)(C)C2	9	-10	2.7	?	4	1	4
CC(C)(CNC(=O)CNC(=O)c1ccc(Cl)cc1Cl)N1CCOCC1	nt	1	2.0	?	1	0	0
COC(=O)c1sccc1NC(=S)N1CCN(c2ccc(F)cc2)CC1	12	-3	2.5	8791	9	2	10
CC(=O)Nc1ccc(S(=O)(=O)NCCC(=O)NCc2ccncc2)cc1	2	-13	0.6	?	3	-8	4

Later entries.
SMILES	BJeLR lethal	PrP 5UTR inh	RN4220 kill	Autofluor counter	Sa ugtP lethal	Mtb hypoxia inh	Mtb hypoxia inh growth
O=C(c1cc2ccccc2oc1=O)N1CCN(Cc2ccc3c(c2)OCO3)CC1	3	-8	3.6	4251	6	4	5
Fc1cccc(F)c1-n1c(CN2CCOCC2)csc1=S	8	-29	7.9	1930	1	5	14
CC1CCN(S(=O)(=O)c2ccc3c(c2)oc(=O)n3CC(=O)N2c3ccccc3CC2C)CC1 (configuration not stated)	-2	-5	6.1	4918	3	1	5
O=C(Nc1nnc(S(=O)(=O)N2CCCCCC2)s1)c1ccccc1Br	5	-46	4.1	5719	23	4	-1
CCCCC(=O)Nc1ccc(NC(=O)CC)cc1OC	-7	-18	-0.4	3847	-2	-4	4
COc1ccc2[nH]c(=O)c(CN(CC3CCCO3)C(=S)Nc3ccc(C)cc3)cc2c1 (configuration not stated)	12	-13	3.5	3695	6	13	5
Cn1c(NCc2cccc(Br)c2)nc2ccccc21	-5	-35	-6.7	4522	-11	9	8
COCCCn1c(Cc2csc(Nc3cccc(Cl)c3)n2)nnc1SCC(=O)OC	-10	-16	2.6	6099	-3	7	9
NC(=O)c1ccccc1OCCOc1ccc(Br)cc1	-1	-24	5.8	5578	2	1	3
COCCNC(=O)COC(=O)c1nsc(Cl)c1Cl	-1	-20	1.0	3950	0	2	3
CCOC(=O)c1ccc(S(=O)(=O)NNC(=O)c2cccc(N(C)C)c2)cc1	2	-8	7.6	3899	4	10	3
Cc1cccc(NC(=O)CSCC(=O)Nc2ccc(S(=O)(=O)N3CCOCC3)cc2)c1	1	-10	2.3	5032	2	3	14
CNC(=O)c1cn(-c2ccc(Cl)cc2)c(=O)c2ccccc12	-7	-16	3.8	4354	-1	5	5
COc1ccc(OCCSc2nnc(C(C)NC(=O)c3ccccc3F)n2C)cc1 (configuration not stated)	0	-15	-0.5	4738	1	-9	4
O=CN1CCN(C(=O)c2cccc([N+](=O)[O-])c2)CC1	-5	-28	2.8	3705	12	12	1
O=C(CN(c1ccc(F)cc1)S(=O)(=O)c1ccccc1)NC1CCCCCC1	0	-9	3.6	nt	5	0	-16
O=C1NC(=O)/C(=C/c2cccc(O)c2)N1	8	-23	nt	3042	nt	nt	nt
CSCC(C)N1CCC(CO)(CCc2ccccc2)CC1 (configuration not stated)	6	-15	-3.9	4628	-2	4	-4
Cc1onc(-c2c(F)cccc2Cl)c1C(=O)N(C)CC(=O)Nc1cccc(F)c1	-7	-5	4.0	?	-3	0	-3
C[C@]12C(=O)N(c3ccccc3)C(=O)N1C1c3ccccc3OCC1C2c1ccccc1 (some centres not stated)	nt	nt	-3.8	nt	-1	-1	5
CCCN1CCC(=O)N(C(CSc2ccc(Br)cc2)c2ccccc2)CC1 (configuration not stated)	nt	nt	-3.2	nt	15	11	10
CCOc1ccc(C2C3=C(CCCC3=O)OC(N)=C2[N+](=O)[O-])cc1 (configuration not stated)	-2	-12	6.4	3687	6	-10	4
FC(F)(F)c1cccc(CON=C2CCN(c3ncc(C(F)(F)F)cc3Cl)CC2)c1	-9	-30	1.1	19810*	30	1	1
COc1cc(C(=O)Nc2nccs2)ccc1OCc1c(C)noc1C	0	-8	9.0	10667	-16	-6	15
C/C(C=NNC(=O)c1ccc(C)nc1)=C\c1ccccc1	nt	nt	1.4	nt	12	8	3
Cc1ccc(C(=O)/C=C/Nc2ccc(S(=O)(=O)Nc3cc(C)nc(C)n3)cc2)cc1	3	-14	0.5	5026	7	2	0
O=C(CCC1CCCN(C(=O)c2ccc(F)c(F)c2)C1)N1CCN(c2ccccn2)CC1 (configuration not stated)	0	-13	1.5	4329	7	-3	-2
COC(=O)N1C(=O)[C@](c2ccccc2)(C2CCCC2)N1C(=O)OC	-6	-30	4.3	2970	-3	15	6
CC1=CC(=O)OC1Cc1ccncc1 (configuration not stated)	-1	-14	1.3	3988	2	nt	nt
COc1ccc(O)c(C=NN2CCOCC2)c1	nt	nt	5.0	nt	9	17	0
NS(=O)(=O)c1ccc(CCNC(=O)C2CCN(S(=O)(=O)c3cccc4cccnc34)CC2)cc1	1	8	1.9	4658	-1	5	-5
COC(=O)CC1SCCNC1=O (configuration not stated)	-7	-18	2.9	20974*	4	4	7
CCOC(=O)C1CCN(CC(O)COc2ccc(C(=O)CC)cc2)CC1 (configuration not stated)	-3	-17	1.8	22284*	0	1	3
Cc1cc(C)cc(OCC(=O)OCC(=O)NCc2cccs2)c1	-4	-7	2.6	1961	5	10	-5
Cc1cccc(C(=O)OC2CCN(C)CC2)c1	8	-33	2.9	3022	2	3	1
OCCC1CC(O)C(O)[C@]2(Cc3ccccc3CO2)O1 (some centres not stated)	nt	nt	3.8&3.3&1.7&-2.1	nt	4&5&1&-7	8&17&1&-2	-14&8&14&-5
Cc1c2cnn(CC(=O)NCc3ccccn3)c(=O)c2c(C)n1Cc1ccccc1	2	-17	-9.8	5878	4	8	6
CN(CC(=O)Nc1ccccc1Cl)C(=O)C1CCN(C(=O)c2ccc(Cl)cc2)CC1	10	3	0.3	4908	1	1	5
CCCn1c(SCC(N)=O)nnc1C(C)C	6	-14	7.0	2898	7	nt	nt
Cc1cc(Nc2cccc(Cl)c2)c2ccccc2n1	3	-23	2.8	4298	0	9	6
CN(CCNC(=O)C1CCC(=O)N(Cc2cccc(F)c2)C1)CCc1ccccc1 (configuration not stated)	7	-16	3.3	6202	9	13	13
CN1CCN(c2ccccc2NC(=O)COc2ccccc2)CC1	2	-17	5.2	14742	0	7	3
CCNC(=S)NN=Cc1ccc(F)cc1	nt	nt	2.1	nt	2	2	11
CC(NC(=O)NC(=O)c1cccc([N+](=O)[O-])c1)C1CC1 (configuration not stated)	5	-29	2.3	6404	7	2	9
CC(C)Oc1cccc(C(=O)C2CCCN(C(=O)c3noc4c3CCCC4)C2)c1 (configuration not stated)	2	-9	0.7	2531	9	1	0
O=C(N/N=C/C=C/c1ccccc1)c1ccccc1Br	1	-20	nt	3395	nt	nt	nt
CC(=O)N1CCOc2ccc(S(=O)(=O)NCC3CCC(C(=O)Nc4ncccc4C)CC3)cc21 (configuration not stated)	5	-16	3.9	6948	10	12	4
CC(C)(C)NC(=O)c1ccc(NC(=O)c2ccccc2-c2ccccc2C(=O)O)cc1	8	-29	4.2	3703	5	nt	nt
C/C(=N\Nc1cc(C)nc(-c2ccccc2O)n1)c1ccccc1	0	-11	nt	4180	nt	nt	nt
COc1ccc(-c2cc(C(=O)N(C)Cc3cccc(OC)c3OC)c3ccccc3n2)cc1OC	-1	-40	1.5	5977	17	-6	-2

Assay outcomes deposited in PubChem BioAssay by several laboratories.
